High-throughput results (PubChem BioAssay)
KCNQ2 pot: potentiators of rat KCNQ2 potassium channel. Potassium voltage-gated channel subfamily KQT member 2 (Rattus norvegicus), O88943. CHO-K1 KCNQ2, FluxOR thallium flux fluorescence; stronger effect = higher value. B-score at 10 µM. hit rate 0.54% among 310,000;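 active means fluorescence ratio B-score at least 3 SD of library B-scores, with initial fluorescence B-score within 3 SD, cut at about 5.3 in these data; same plate scores as AID 2156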;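 further: B-score of peak minus minimum over baseline fluorescence ratio after K+ and Tl+ stimulus; positive B-score means potentiation of KCNQ2 with more thallium influx and brighter signal; only the inactives scoring about 0 or higher are listed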
Target sequence (O88943 whole entry, looked up): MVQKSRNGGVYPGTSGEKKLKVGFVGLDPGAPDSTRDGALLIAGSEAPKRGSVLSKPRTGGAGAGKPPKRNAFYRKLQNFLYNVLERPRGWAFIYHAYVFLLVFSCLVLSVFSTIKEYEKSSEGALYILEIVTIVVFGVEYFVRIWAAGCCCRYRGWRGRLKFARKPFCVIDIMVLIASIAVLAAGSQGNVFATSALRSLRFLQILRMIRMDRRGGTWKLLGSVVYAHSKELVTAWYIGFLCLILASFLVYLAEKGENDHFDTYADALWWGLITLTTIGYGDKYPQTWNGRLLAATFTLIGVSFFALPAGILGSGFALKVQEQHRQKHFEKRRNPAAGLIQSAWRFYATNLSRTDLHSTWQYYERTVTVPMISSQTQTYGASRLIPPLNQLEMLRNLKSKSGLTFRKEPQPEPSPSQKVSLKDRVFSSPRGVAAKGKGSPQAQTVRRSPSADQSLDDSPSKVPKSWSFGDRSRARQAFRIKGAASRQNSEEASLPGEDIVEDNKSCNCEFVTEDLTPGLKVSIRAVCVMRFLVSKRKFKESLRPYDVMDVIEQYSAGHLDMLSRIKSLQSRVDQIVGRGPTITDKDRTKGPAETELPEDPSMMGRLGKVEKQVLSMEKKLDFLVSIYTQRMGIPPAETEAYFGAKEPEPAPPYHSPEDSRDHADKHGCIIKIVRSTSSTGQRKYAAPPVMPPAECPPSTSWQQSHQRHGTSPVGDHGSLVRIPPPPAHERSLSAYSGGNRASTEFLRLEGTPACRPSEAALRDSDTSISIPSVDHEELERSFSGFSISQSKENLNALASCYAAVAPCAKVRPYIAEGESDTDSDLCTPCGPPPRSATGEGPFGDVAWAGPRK
KCNQ2 pot baseline: also measured in KCNQ2 pot; calls as there; B-score; compound at 10 µM; measured here: initial fluorescence intensity artifact check;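 brightness before thallium and not channel activity; 0 = typical well and far values either way flag optical interference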
* marks the source's active call; other numbers are inactive results. Only part of the results is shown (hit frequency here may not be typical).

KCNQ2 pot | KCNQ2 pot baseline | smiles
1.14 | 0.54 | O=C(CCN=C1NS(=O)(=O)c2ccccc21)OCc1nnc(-c2ccccc2)o1
0.19 | -0.21 | CCCCN(CCCC)S(=O)(=O)c1ccc(C(=O)Nc2nnc(COC)o2)cc1
0.68 | -0.92 | COCCN(C(=O)COC(=O)Cc1ccc(Cl)cc1Cl)c1c(N)n(Cc2ccccc2)c(=O)[nH]c1=O
0.64 | 0.22 | COc1ccc(-c2nnc(SCc3ccc(C(=O)O)cc3)n2N)cc1
1.07 | -0.43 | CC(OC(=O)Cc1n[nH]c(=O)c2ccccc12)C(=O)Nc1ccc(F)cc1Cl (centres undefined)
1.28 | 0.01 | Cc1cnc(C(=O)NC2CCSc3ccccc32)cn1 (centres undefined)
1.82 | 0 | COc1ccc(Oc2cc(Cl)nc(N)n2)cc1
0.61 | 0.45 | COc1ccc(C2CC(=O)Nc3sc(=N)c4c(N)c(C#N)c(N)nc4c32)cc1OC (centres undefined)
0.1 | 0.66 | COC(CNC(=O)c1ccc(CS(=O)(=O)c2c(Cl)cccc2Cl)o1)OC
3.06 | 0.96 | Cc1ccccc1OCC(=O)NNC(=S)NC(=O)c1ccco1
0.04 | -0.1 | Cc1nc2cc(NC(=O)c3ccco3)ccc2n1C
1.21 | 0.41 | O=C(Nc1cccc2ncccc12)C12CC3CC(CC(C3)C1)C2
0.16 | -2.03 | Cc1cc(NC(=O)C(=O)c2cn(C)c3ccccc23)no1
0.04 | 1.02 | O=C(CSC1CC(=O)N(c2ccc(C(=O)O)cc2)C1=O)Nc1ccc2ccccc2c1 (centres undefined)
0.04 | -1.1 | O=S(=O)(c1ccc2c(c1)OCCO2)N1CCC(c2nc3ccccc3[nH]2)CC1
0.17 | 0.5 | CCNC(=O)C12CCC(C)(c3nc4cc(C)c(C)cc4nc31)C2(C)C (centres undefined)
0.12 | 2.27 | COc1ccccc1OCC(=O)Nc1cc(C(F)(F)F)ccc1-n1cncn1
0.43 | -2.17 | c1ccc(-c2nnc3n2-c2ccccc2SC3)cc1
0.22 | 0.94 | Cc1c(N/C(=N/S(=O)(=O)c2ccccc2)c2ccc(Cl)cc2)c(=O)n(-c2ccccc2)n1C
0.76 | 0.01 | Cc1ccc(CNC(=O)Cn2c([N+](=O)[O-])cnc2C)cc1
0.42 | 1.67 | COc1cc(/C=N/NC(=O)CCC(=O)Nc2ccc(Br)cc2)ccc1O
0.1 | 0.78 | Cc1ccc(Cl)cc1NC(=O)C1CCCN(S(C)(=O)=O)C1 (centres undefined)
0.01 | -0.45 | O=C(COc1ccc(Cl)cc1Cl)NC(=O)N1CCOCC1
0.64 | -2.34 | CC(=O)Oc1ccc2oc3c(c2c1)C(=O)CCC3
0.48 | 0.43 | O=C(NCc1ccc2c(c1)OCO2)C1CCCN1C(=O)Nc1ccccc1 (centres undefined)
0.61 | -0.81 | CCOC(=O)CCCNC(=O)CCNC(=O)c1ccc(OCC(C)C)cc1
2.91 | 2.01 | CCCCCCCCNC(=O)CCNC(=O)c1ccc(C(C)(C)C)cc1
0.59 | 0.46 | COc1ccc(N2C(=O)C(CC(=O)Nc3ccccc3)N(CCc3ccc(OC)c(OC)c3)C2=O)cc1 (centres undefined)
1.23 | 0.01 | CCOCCCNC(=O)c1ccccc1Br
0.58 | -0.8 | O=C(O)c1ccc(CNCc2ccccc2F)cc1
0.37 | 0.22 | CCN(CC)S(=O)(=O)c1ccc(OC)c(NC(=O)CSc2ccccc2)c1
0.2 | -0.39 | COc1ccc(/C=N/NC(=O)c2nc(-c3ccccc3)cc(-c3ccccc3)n2)cc1O

Quoted from the results shown (15 entries):
KCNQ2 pot | KCNQ2 pot baseline | smiles
0.43 | -2.17 | c1ccc(-c2nnc3n2-c2ccccc2SC3)cc1
0.22 | 0.94 | Cc1c(N/C(=N/S(=O)(=O)c2ccccc2)c2ccc(Cl)cc2)c(=O)n(-c2ccccc2)n1C
0.76 | 0.01 | Cc1ccc(CNC(=O)Cn2c([N+](=O)[O-])cnc2C)cc1
0.42 | 1.67 | COc1cc(/C=N/NC(=O)CCC(=O)Nc2ccc(Br)cc2)ccc1O
0.1 | 0.78 | Cc1ccc(Cl)cc1NC(=O)C1CCCN(S(C)(=O)=O)C1 (centres undefined)
0.01 | -0.45 | O=C(COc1ccc(Cl)cc1Cl)NC(=O)N1CCOCC1
0.64 | -2.34 | CC(=O)Oc1ccc2oc3c(c2c1)C(=O)CCC3
0.48 | 0.43 | O=C(NCc1ccc2c(c1)OCO2)C1CCCN1C(=O)Nc1ccccc1 (centres undefined)
0.61 | -0.81 | CCOC(=O)CCCNC(=O)CCNC(=O)c1ccc(OCC(C)C)cc1
2.91 | 2.01 | CCCCCCCCNC(=O)CCNC(=O)c1ccc(C(C)(C)C)cc1
0.59 | 0.46 | COc1ccc(N2C(=O)C(CC(=O)Nc3ccccc3)N(CCc3ccc(OC)c(OC)c3)C2=O)cc1 (centres undefined)
1.23 | 0.01 | CCOCCCNC(=O)c1ccccc1Br
0.58 | -0.8 | O=C(O)c1ccc(CNCc2ccccc2F)cc1
0.37 | 0.22 | CCN(CC)S(=O)(=O)c1ccc(OC)c(NC(=O)CSc2ccccc2)c1
0.2 | -0.39 | COc1ccc(/C=N/NC(=O)c2nc(-c3ccccc3)cc(-c3ccccc3)n2)cc1O

(continued)
KCNQ2 pot | KCNQ2 pot baseline | smiles
1.41 | -0.07 | Cc1ccc(C(=O)CCCn2nnc(-c3cccnc3)n2)cc1C
1.65 | 0.5 | Cc1ccc(/C(O)=C2/C(=O)C(=O)N(CCN3CCOCC3)C2c2cccnc2)cc1 (centres undefined)
0.37 | 0.65 | Cn1c(=O)c2c(ncn2CCc2ccccc2)n(C)c1=O
0.35 | -0.35 | O=C(CN1CCC(C(=O)c2ccc(F)cc2)CC1)NCc1ccccc1F
0.71 | 1.79 | CCOC(=O)/C(C#N)=N/Nc1ccccc1C(=O)O
0.63 | -2.08 | CCN(CC)C(=O)c1ccc(-c2nnc(Nc3ccc(O)cc3)c3ccccc23)cc1
0.04 | -0.52 | COc1ccc(CCN2CC(C(=O)NCCc3cccc(F)c3)CCC2=O)cc1 (centres undefined)
0.96 | 0.87 | CCCCn1c(=O)[nH]c(=O)c2c1nc(-c1cc(Br)c(OCC)c(OC)c1)n2C
2.17 | 0.68 | Cc1cccc(CC(=O)Nc2sc(C(C)C)cc2C(=O)N2CCOCC2)c1
1.38 | 0.08 | O=C(O)CSCC(=O)N1CCN(c2nc3cc(Cl)ccc3s2)CC1
0.57 | -0.24 | Cc1ccc(-n2nnnc2CNC(=O)c2ccc3c(c2)OCO3)cc1C
1.3 | 0.05 | COc1ccc(-c2nnc(SCC(=O)NNC(=O)Cc3ccccc3)n2C)cc1OC
0.45 | -1.41 | CC(Oc1ccccc1)C(=O)N1CCC2(CC1)CC(=O)c1ccccc1O2 (centres undefined)
0.08 | 0.54 | Cc1ccc(CSc2ncn(-c3ccccc3)n2)cc1
0.53 | 0.25 | O=C(CNS(=O)(=O)c1ccccc1)Nc1ccc(F)cc1F
1.22 | 1.33 | CCCn1c(=S)[nH]c2cc(OC)c(OC)cc2c1=O
1.17 | 0.09 | CCOC(=O)Cc1nnc(NC(=O)C2CCCCC2)s1
0.02 | 0.81 | CC(C)c1ccc(NC(=O)N2CCOCC2)cc1
1.19 | -0.59 | O=C(NC1CCCCCC1)c1ccc(Br)o1
0.01 | -0.03 | O=C(CSc1ccccc1)NCC1(N2CCCCC2)CCCCC1
1.62 | -1.27 | CC(=O)NC1CCCc2c1cnn2-c1ccc(C(C)(C)C)cc1 (centres undefined)
0.28 | -0.29 | CC(C)(C)NC(=S)NNC(=O)c1cccc(Br)c1
0.18 | -0.24 | N/C(=N\OC(=O)c1ccc(Cl)cc1[N+](=O)[O-])c1cccnc1
0.77 | -0.59 | COC(=O)c1ccc(-c2ccc(/C=N/NC(=O)CC3(C)OCCCO3)o2)cc1
0.51 | -0.88 | Cc1cc(C)n2nc(C(=O)Nc3c(C)nn(Cc4ccc(F)cc4)c3C)cc2n1
1.14 | 0.65 | CS(=O)(=O)N(CC(=O)N1CCC(C(N)=O)CC1)c1ccc(Oc2ccccc2)cc1
1.04 | -0.01 | CC(Cc1ccccc1)N/C=C1/CC(=O)NC1=O (centres undefined)
0.38 | 3.2 | O=C1NC(c2ccccc2Br)=N/C1=C\c1ccco1
1.16 | -1.4 | COc1ccc(-n2nc([N+](=O)[O-])c(=NCc3ccco3)n2O)cc1
0.12 | 0.01 | O=C(NCc1ccco1)C1CCCCC1
0.39 | 0.8 | CC1CCN(c2nc3c(N)ncnc3n2[C@@H]2O[C@H](CO)[C@@H](O)[C@H]2O)CC1
0.97 | -1.98 | COc1ccc(/C=N/Nc2nc(C)cc(=O)[nH]2)cc1OC
0.55 | -1.09 | O=[N+]([O-])c1cccc(/C=N/Nc2nc(C(Cl)(Cl)Cl)nc3ccccc23)c1
0.08 | 0.52 | O=C1NC(c2cccs2)Nc2ccccc21 (centres undefined)
0.5 | -0.35 | Cc1ccccc1OCc1nc(-c2cccnc2)no1
0.61 | -0.01 | COc1ccc(C(=O)Nc2cccc(S(C)(=O)=O)c2)cc1
1.89 | 0.13 | Cc1ccc(C(=O)CCC2CCCC2=O)cc1 (centres undefined)
0.62 | 0.92 | COc1cccc(NC(=O)C2CCN(c3ncccn3)CC2)c1
0.3 | 0.93 | CCOC(=O)c1ccc(Oc2nc(NC(C)(C)C)nc(N(C)C)n2)cc1
0.05 | -1.71 | O=C(CNC(=O)C1COc2ccccc2O1)N/N=C/c1ccc([N+](=O)[O-])cc1 (centres undefined)
1.34 | 0.46 | Cc1cccn2c(CN3CCCN(C=O)CC3)c(C(=O)N(C)CCc3ccccc3)nc12
0.2 | 1.88 | COc1cccc(NC(=O)c2cn(C)c(=O)c3cc(OC)c(OC)cc23)c1
0.76 | 0.53 | CC1Cc2ccccc2N1C(=O)C1CC(=O)N(c2ccccc2)C1 (centres undefined)
0.45 | 0.66 | CCCNC(=O)c1ccc2c(c1)CCN2S(C)(=O)=O
0.12 | 1.65 | Cc1ccc(CNC(=O)C2CC3Cn4c(nc5cc6ccccc6cc54)C3N2C)o1 (centres undefined)
1.52 | -0.28 | Cc1ccc2c(c1)nnn2C1CCN(C(=O)C23CC4CC(CC(C4)C2)C3)CC1
1.09 | 0.63 | CCOC(=O)C1=C(C)N=c2s/c(=C\c3ccc(OCC(=O)O)cc3)c(=O)n2C1c1ccccc1OC (centres undefined)
0.15 | 1.17 | Clc1ccc(Nc2c3c(nc4ncnn24)CCC3)cc1
0.96 | -0.47 | Cc1nn(C(=O)c2c([N+](=O)[O-])cnn2C)c(C)c1Cl
2.04 | -0.19 | O=C(CNS(=O)(=O)c1ccccc1)N1CCN(C(=O)c2ccco2)CC1
1.1 | -1.43 | COCCCNS(=O)(=O)c1cccc(S(=O)(=O)c2cccc(S(=O)(=O)NCCCOC)c2)c1
0.53 | 0.6 | N#Cc1c(SCC(=O)N2CCOCC2)nsc1SCC(=O)N1CCOCC1
1.31 | -0.04 | O=C(Nc1cccc(C(F)(F)F)c1)C1CCN(S(=O)(=O)c2cccnc2)CC1
0.25 | 0.19 | CCOC(=O)c1cn(Cc2ccc(C)cc2)nn1
0.98 | -1.08 | CCOc1ccc(N(CC(=O)NC2CCCC2)C(=O)CCC(=O)Nc2nccs2)cc1
0.25 | 1.02 | O=S(=O)(Nc1cccnc1)c1ccc(Br)c2ccccc12

The list continues:
KCNQ2 pot | KCNQ2 pot baseline | smiles
0.8 | 0.68 | Cc1ccc(C)c(C2=CSC3=NS(=O)(=O)CCN23)c1
1.05 | -0.27 | c1ccc(CCn2nnnc2C(c2cccs2)N2CCOCC2)cc1 (centres undefined)
0.04 | 0.43 | Cc1cc(OCCOc2cccc3cccnc23)cc(C)c1Cl
0.04 | 1.6 | Cc1nc2sc(C(c3ccccc3)N3CCN(C)CC3)c(O)n2n1 (centres undefined)
0.09 | -1.31 | CCC(=O)NC(=S)Nc1ccc(NC(=O)c2ccco2)cc1
1.09 | -0.03 | COc1cccc(CN2CC(C(=O)N3CCCO3)CCC2=O)c1 (centres undefined)
0.02 | 0.88 | Clc1ccccc1C1=Nn2c(nnc2-c2ccco2)SC1
1.09 | -0.12 | CC1CCN(C(=O)c2ccc(NC(=O)C3CCCO3)cc2)CC1 (centres undefined)
1.21 | 0 | CCN1CCN(/C=N/c2nc3c(s2)CCCC3)CC1
0.97 | -0.18 | CCCCc1nc(NCCN2CCOCC2)c(C#N)c2c1COC(C)(C)C2
1.48 | -0.6 | CC(C)c1nnc(NC(=O)C2CCCN(C(=O)Nc3ccc(F)cc3)C2)s1 (centres undefined)
2.61 | 0.08 | CCn1nc(C)c(NC(=O)c2cc(Br)ccc2Cl)c1C
0.1 | -0.18 | c1ccc2c(c1)ncn2CCC1CCCCC1
0.52 | 0.8 | COc1ccc(CCN(C)C(=O)CN2C(=O)c3ccccc3S2(=O)=O)cc1OC
2.63 | -0.19 | COC(=O)C1=C(C)N(Cc2ccccc2)C(=NCCc2cccnc2)N[C@H]1c1ccccc1
0.03 | -0.81 | COC(=O)C1(C)NCCc2c1[nH]c1ccccc21 (centres undefined)
0.05 | -0.21 | CC[C@@]12C(=O)N(c3ccc(C)cc3)C(=O)N1[C@H](c1cccc(C)c1)[C@@H]1C(=O)N(Cc3ccccc3)C(=O)[C@@H]12
0.08 | -0.34 | COc1cc(NC(=S)Nc2ccccn2)c(OC)cc1Cl
0.1 | 2.26 | COc1cc(/C=N/NC(=O)c2cccnc2)cc(Br)c1O
1 | -0.18 | Cn1c(CNC(=O)CNC(=O)Cc2ccc(F)cc2)cc(=O)n(C)c1=O
1.65 | -0.7 | CCOC(=O)Cc1csc(NC(=O)c2ccc(C)cc2)n1
1.04 | -1.11 | CN(C)S(=O)(=O)c1cccc(COc2ncnc3c(Cl)cc(Cl)cc23)c1
